Sa growth inh – inhibitors of Staphylococcus aureus growth at 42 °C | S. aureus RN4220 growth, OD600, 20 h; hits give low values | relative growth, % (concentration not given with the values) | 0.53% of 170,000 active;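 active means growth at 42 °C up to 50% and 20 or more points under that at 30 °C, or under 10% at both; inconclusive means no clear call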;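 further: 300 nL library stock went into each well; scaled to the means of positive and negative controls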
HCMV UL50-53 inh – disrupts HCMV UL50-UL53 complex binding; 0.15% of 190,000 active; inhibition, % (concentration not given with the values); HTRF UL50-UL53 interaction, normalized percent inhibition;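 active means both replicates at 50% or more, plus weaker picks with an unusually low signal ratio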;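 further: stock transfer was 100 nL into about 20 µL; 0% = negative control wells and 100% = wells with untagged competitor protein; inactives centre near -12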
GIV Gai3 FP – blocks GIV peptide binding to rat Galpha-i3 | 0.42% of 210,000 active | AID 1224905 | Galpha-i3/FITC-GIV peptide fluorescence polarization, 90 min; hits give low values; scaled: aluminum fluoride 0%, vehicle 100% | percent of control (FP), % (no concentration beside the values);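 active means replicate mean at 85% of control or lower, very high polarization wells dropped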;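 further: wells of about 15 µL received 100 nL stock; the first replicate is given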
Target sequence (P08753 whole entry, looked up): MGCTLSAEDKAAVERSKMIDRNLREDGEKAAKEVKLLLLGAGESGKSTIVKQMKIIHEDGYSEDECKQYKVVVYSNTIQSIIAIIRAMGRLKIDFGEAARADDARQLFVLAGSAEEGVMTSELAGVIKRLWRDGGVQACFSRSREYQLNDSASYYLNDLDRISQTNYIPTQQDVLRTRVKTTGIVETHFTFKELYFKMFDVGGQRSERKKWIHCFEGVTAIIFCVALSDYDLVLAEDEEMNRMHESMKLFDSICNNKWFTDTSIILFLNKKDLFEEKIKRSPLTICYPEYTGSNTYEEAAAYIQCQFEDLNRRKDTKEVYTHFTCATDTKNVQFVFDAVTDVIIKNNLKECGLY
Sa growth inh second temp – further read-out of Sa growth inh, marked with its call; relative growth, %; measured here: growth at 30 °C;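 optical density after 20 h as mean of two plates; 100% = untreated growth and lower means inhibition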
* = called active by the depositor; ? = inconclusive; nt = not tested or not shown; & = joins results of further samples.

SMILES	Sa growth inh	Sa growth inh second temp	HCMV UL50-53 inh	GIV Gai3 FP
C=Cc1ccc(Cn2c(=O)n(-c3ccccc3C)c(=O)c3c4c(sc32)CN(C(C)=O)CC4)cc1	118.4	64.8	-21.3	108.8
S=c1nn[nH]n1CC1CCCO1 (stereo not given)	74.7	91.7	-20.9	nt
Cc1ccc(-n2ncc3c(NCCCn4ccnc4)ncnc32)cc1C	80.4	40.1	nt	104.3
COCCNC(=O)C1Sc2nnc(C)n2NC1c1ccc(OC)c(Cl)c1 (stereo not given)	105.6	100.5	20.6	101.9
NNC(=O)c1oc2nc(-c3ccccc3)cc(-c3ccccc3)c2c1N	80.9	79.5	-68.4	104.8
COc1ccc2c(CNCc3cccs3)c(C(=O)O)n(Cc3ccc(C)cc3)c2c1	112.6	82.5	nt	97.5
Cn1cc(Cl)c(-c2noc(-c3ccccc3C(F)(F)F)n2)n1	91.4	78.0	-1.4	103.6
CCOC(=O)C1=C(CN(CC)Cc2ccccc2)NC(=O)NC1c1ccc(OC(C)C)cc1 (stereo not given)	95.3	67.4	-26.6	106.9
Cn1c(=O)c2c(C3C(=O)Nc4ccccc43)c(-c3ccc(-c4ccccc4)cc3)[nH]c2n(C)c1=O (stereo not given)	nt	nt	-5.0	106.0
Cc1cc(C)n2nc(CNC(=O)Nc3ccccc3C(F)(F)F)nc2n1	111.3	94.1	-2.7	108.7
COc1ccc(NC(=O)CSc2nc3c(cc2C#N)CCC3)cc1	113.4	106.5	-11.9	98.2
Cc1ccc(NC(=O)c2ccnc(Nc3ccc(F)c(F)c3)c2)cc1	nt	nt	19.1	103.0
COc1coc(C(=O)O)c1OC	90.1	86.1	-19.9	101.2
NC(=O)c1ccc(OCC2CCCO2)cc1 (stereo not given)	74.5	86.4	-19.8	nt
CCCNC(=O)CSc1c(CCC)cnc2c1c(=O)n(C)c(=O)n2C	100.2	95.6	nt	100.0
Clc1ccc(CCNc2ncnc3c2c(-c2ccccc2)cn3-c2ccccc2)cc1	114.8	86.0	nt	101.4
Cc1ccc(-c2nnc(SCC(=O)n3c4c(c5ccccc53)CCCC4)o2)cc1	nt	nt	1.0	110.8
O=C(Nc1ccccn1)C12CC3CC(CC(C3)C1)C2	97.1	82.7	-26.3	98.2
Cc1ccc(NC(=O)NC(C)c2c(-n3cccc3)sc(C)c2C)cc1F (stereo not given)	113.1	87.0	-29.0	102.9
CCSc1nnc(SCC(=O)Nc2ccc(S(=O)(=O)N3CCCC3)cc2)s1	76.7	98.4	-7.9	nt
CC(C(=O)NCc1ccco1)N1C(=O)c2ccccc2C1=O (stereo not given)	99.8	95.9	-20.9	105.7
O=C(O)C1CCN(C2CC(=O)N(c3cccc(Cl)c3)C2=O)CC1 (stereo not given)	nt	nt	-2.3	88.7
O=C(CCN1C(=O)C2CC=CCC2C1=O)OCc1ccc(Cl)cc1 (stereo not given)	105.6	105.0	8.2	nt
O=C1CC(NC(=O)C(F)(F)F)=NN1c1ccccc1	113.7	97.9	-8.6	101.3
COc1cccc(NC(=O)Cn2c(=O)n(CCCCC(=O)NCc3ccccc3Cl)c(=O)c3ccccc32)c1	100.6	80.9	-19.3	100.8

Some of the entries above, reformatted:
Cc1ccc(-n2ncc3c(NCCCn4ccnc4)ncnc32)cc1C
  Sa growth inh: 80.4; Sa growth inh second temp: 40.1; HCMV UL50-53 inh: nt; GIV Gai3 FP: 104.3
O=C(Nc1ccccn1)C12CC3CC(CC(C3)C1)C2
  Sa growth inh: 97.1; Sa growth inh second temp: 82.7; HCMV UL50-53 inh: -26.3; GIV Gai3 FP: 98.2

Next results.
SMILES	Sa growth inh	Sa growth inh second temp	HCMV UL50-53 inh	GIV Gai3 FP
Cc1cc(C)n2nc(SCC(=O)NC(C)C(C)C)nc2n1 (stereo not given)	71.9	94.8	-8.3	nt
COc1ccc(OC)c(NCc2cccn2-c2nnc(N3CCCCC3)s2)c1	78.3	84.6	nt	105.9
CCOC(=O)Nc1ccc2c(CN3C(=O)NC(CC)(CC)C3=O)cc(=O)oc2c1	95.7	85.5	-46.8	nt
COc1ccc(-c2nc(CS(=O)CC(=O)NCc3ccccc3OC)c(C)o2)cc1 (stereo not given)	?	nt	-10.7	107.6
CCOC(=O)c1ccc(NC(=O)C(CC(C)C)N2C(=O)C3C4C=CC(C4)C3C2=O)cc1 (stereo not given)	102.1	93.4	-6.7	104.6
Cc1cc2n(n1)CCCN2Cc1ccc(C(=O)NC2CCCC2)cc1	nt	nt	14.7	104.4
CCC(=O)N1CCCc2cc(S(=O)(=O)N3CCC(C(=O)NC4CCC(C)CC4)CC3)ccc21 (stereo not given)	112.3	93.0	nt	104.3
O=C(C1CCCCC1)N1CC(OCc2ccc(F)cc2Cl)C1	nt	nt	-13.3	103.8
Cc1ccc(NC(=O)Cc2c(O)c3ccccc3[nH]c2=O)cc1	99.1	93.6	4.8	nt
COc1ccc(Nc2cc(C(=O)NCCC(C)C)c3ccccc3n2)cc1	112.4	87.4	nt	105.1
O=C(Cc1ccccc1)NCCSc1ccccc1	96.8	71.2	-8.2	97.9
COc1ccccc1/C=C/C=N\N1CCN(c2ccccc2)CC1	80.7	78.1	nt	100.3
CC(C)Nc1nc(-c2ccccc2)nc2ccccc12	98.8	65.0	nt	104.6
Cc1ccc(S(=O)(=O)c2c(N)n(Cc3ccco3)c3nc4ccccc4nc23)cc1	89.9	63.7	-35.9	108.0
NS(=O)(=O)c1ccc2nc(NC(=O)c3ccc(S(=O)(=O)N4CCCCC4)cc3)sc2c1	nt	nt	-3.6	100.1
COc1cccc(NS(=O)(=O)c2ccc3[nH]cc(C(=O)N4CCCCC4C)c(=O)c3c2)c1 (stereo not given)	103.6	98.3	5.8	104.7
CCOC(=O)c1c(NC(=O)COC(=O)Cc2cn3ccsc3n2)sc(C)c1Cc1ccc2c(c1)OCO2	91.5	89.2	-34.0	nt
CSc1nc(N)nc(N2CCSCC2)n1	115.4	102.9	-12.3	102.0
COc1ccc(C2CC3(CC(C)(C)NC(=O)N3)Oc3cc(O)ccc32)cc1 (stereo not given)	144.0	87.0	3.7	96.8
O=C(Oc1ccc(C2Oc3ccccc3C3CC(c4cccc5ccccc45)=NN32)cc1)c1ccccc1 (stereo not given)	nt	nt	-0.7	103.2
O=C(NCc1cccs1)c1cc2cccc3c2n1CCS3	98.7	85.3	-27.6	106.0
COC(=O)CSCc1nc(N)nc(Nc2ccccc2C)n1	97.8	100.7	-8.7	nt
O=C(Nc1ccccc1C(=O)O)c1cccs1	87.7	72.6	-17.9	100.9
CCn1c(SCC(=O)c2ccc(C)cc2)nnc1C1CC1	99.9	94.8	-11.7	100.2
Cn1nc(C(F)(F)F)c(-c2cccc(C(F)(F)F)c2)c1NC(=O)c1nccnc1C(=O)O	98.8	88.4	-14.2	100.5

Complete entries, looked up by structure.
`COc1cccc(NS(=O)(=O)c2ccc3[nH]cc(C(=O)N4CCCCC4C)c(=O)c3c2)c1` (stereo not given) is listed as Sa growth inh = 103.6; Sa growth inh second temp = 98.3; HCMV UL50-53 inh = 5.8; GIV Gai3 FP = 104.7
`COc1ccc(Nc2cc(C(=O)NCCC(C)C)c3ccccc3n2)cc1` is listed as Sa growth inh = 112.4; Sa growth inh second temp = 87.4; HCMV UL50-53 inh = nt; GIV Gai3 FP = 105.1

Going on with the list:
SMILES	Sa growth inh	Sa growth inh second temp	HCMV UL50-53 inh	GIV Gai3 FP
COc1ccc(NC(=O)CCSc2nc(C)cs2)cc1	77.7	91.5	10.2	100.6
Cc1ccc(C)c(NC(=O)C(NC(C)C)c2ccccc2)c1 (stereo not given)	82.3	91.7	-22.8	nt
COc1ccc(NC(=O)c2ccc3ncsc3c2)cc1	99.2	81.4	-12.4	100.7
CCN(C(=O)/C=C/c1ccco1)c1nc2c(C)cccc2s1	68.4	87.2	-24.1	nt
CSc1nc(-c2ccc(C(F)(F)F)cc2)nc(N)c1C#N	111.3	93.1	-1.6	104.2
O=C1Nc2ccccc2/C1=N\n1cnc2ccccc21	82.2	84.9	-44.9	nt
Cc1oc(-c2cccc(F)c2)nc1CSCC(=O)O	102.2	101.3	3.1	100.7
Cc1ccc2nc3sc(C#N)c(N)c3cc2c1	96.3	94.0	-26.2	93.4
Cc1ccccc1Nc1c(-c2cccc(Cl)c2)nc2ncccn12	100.1	96.0	7.4&-6.8	101.8&105.0
O=C(NCCCN1CCN(c2cccc(Cl)c2)CC1)c1ccc2nc(Cc3ccccc3)oc2c1	76.5	72.5	nt	99.7
COC(=O)c1ccc(C2NC(=O)NC3=C2C(=O)CC(C)(C)C3)cc1 (stereo not given)	99.6	92.3	-17.8	nt
COc1ccc(OC)c(/C=C/C(=O)N(C)CCOc2ccccc2)c1	100.5	94.3	-41.1	nt
O=C(c1cc(F)cc(F)c1)N1CCC(c2nc(-c3ccc(S(=O)(=O)N4CCCC4)cc3)no2)CC1	98.2	90.0	-11.1&-4.0	101.9&97.5
CCOc1ccc(S(=O)(=O)N2CCCC2C(=O)Nc2nnc(CC)s2)cc1 (stereo not given)	nt	nt	8.0	102.7
COc1ccc(NC(=O)COc2nc(N(C)C)nc(N(C)C)n2)cc1	102.3	98.4	-7.5	108.7
C=CCOn1c(=O)c(-c2ccc(C)cc2)[n+]([O-])c2ccccc21	110.6	95.6	-82.0	105.4
CNc1nc(-c2ccc(OC)cc2)c(C)s1	97.7	82.8	-31.1	nt
O=C(CN1CSCC1=O)Nc1ccc2nc(N3CCOCC3)sc2c1	70.5	92.0	-11.1	nt
C#C[C@]1(O)CCC2C3CCc4cc(O)ccc4C3CC[C@@]21C (stereo not given in full)	98.3	87.2	-14.0&-43.3	nt
COCCNC(=O)COc1ccc(-c2noc(-c3ccccc3)n2)cc1OC	nt	nt	-29.4	109.6
O=C(Cn1cc(SCc2cccc(F)c2)c2ccccc21)N1CCOCC1	111.2	90.1	nt	104.1
COc1cccc(S(=O)(=O)NCc2ccc(C(=O)N3CCCC3)cc2)c1	109.7	102.8	-3.3	100.8
C=Cn1cc[n+](CC(=O)c2ccc(C)cc2)c1	85.0	96.5	5.3	101.2
COc1ccc2c(CNCc3ccccc3)c(C(=O)O)[nH]c2c1	103.0	104.4	-16.4	109.8
COc1cccc(N2C(=O)CSC23C(=O)N(Cc2ccccc2F)c2ccccc23)c1 (stereo not given)	108.2	85.7	nt	102.2
(list continues)
SMILES	Sa growth inh	Sa growth inh second temp	HCMV UL50-53 inh	GIV Gai3 FP
COc1ccccc1S(=O)(=O)Cc1ccc(C(=O)N2CCN(c3cc(Cl)ccc3C)CC2)o1	104.9	86.3	-20.8	103.6
CCOc1ccc2nc(NC(=O)c3ccc(NS(=O)(=O)c4cccs4)cc3)sc2c1	109.3	73.9	-4.0	103.8
C=CCSc1nnc2n1CCCN2	99.3	92.7	-51.6	109.5
O=S(=O)(Nc1ccccc1N1CCCCC1)c1ccccc1	108.0	100.1	2.3	105.1
COc1cc(OC)c(OC)cc1CN1CCc2nc(Nc3ccc4c(c3)OCCO4)ncc2C1	108.5	91.0	nt	99.8
COc1ccc(NC(=O)Cn2c(=O)n(Cc3ccccc3OC)c(=O)c3cccnc32)cc1Cl	103.3	94.5	-1.4	107.0
Cc1cc(C(=O)NCc2csc(-c3cccs3)n2)nn1C	106.3	91.9	-82.2	105.5
CC(C)(/C=N/Nc1nc2ccccc2o1)CO	88.8	94.5	7.1	105.9
O=C(CNc1ccccc1OC(F)F)N1CCc2ccccc21	91.7	85.6	-21.7	nt
COc1ccccc1C(=O)N/C(=C\c1cn(S(=O)(=O)N(C)C)c2ccccc12)C(=O)NCCCn1ccnc1	114.2	88.3	-13.8	108.7
CC(C)(C)/C(O)=C/c1nc2ccccc2oc1=O	110.3	55.8	nt	102.9
C=CCn1c(=O)c(C(=O)Nc2nccc(C)n2)c(O)c2ccccc21	nt	nt	-18.7	106.3
O=C(NCCCc1nc2ccccc2n1Cc1ccc(Cl)cc1Cl)c1ccco1	102.3	71.3	5.6	97.3
O=c1cc(CN2CCN(c3ccccc3)CC2)occ1OC/C=C/c1ccccc1	95.3	96.8	-24.4	105.0
COc1ccc(C(=O)NCCn2cc(SCc3ccc(C(F)(F)F)cc3)c3ccccc32)cc1OC	82.8	98.0	9.3	99.1
Cc1c(/C(Cc2ccccc2)=N/O)c2ccccc2n1C	103.2	86.6	-30.3	99.5
Cc1cccc(-c2cc(C(=O)NCc3cccnc3)c3ccccc3n2)c1	nt	nt	-17.0	102.7
COc1cc2c(cc1NS(C)(=O)=O)c1c(n2S(C)(=O)=O)CCC1	100.2	83.5	-28.4	103.2
O=C(Cn1ncc2c(=O)oc3ccccc3c21)NCC1(c2ccccc2)CCCC1	103.2	105.6	1.9	97.9
CC1=N/C(=C2/C=C(c3cccs3)Oc3ccccc32)C(=O)O1	96.9	79.2	-27.8	98.3
CC1(C)CC(N2CCN(C3CC(C)(C)NC(C)(C)C3)CC2)CC(C)(C)N1	109.5	85.4	-25.5	103.4
COc1ccc2nc(-n3c(C)ccc3C)sc2c1	113.0	95.1	-3.5	107.9

Two entries from above, with values under each structure:
Each structure is followed by: Sa growth inh | Sa growth inh second temp | HCMV UL50-53 inh | GIV Gai3 FP
COc1cc2c(cc1NS(C)(=O)=O)c1c(n2S(C)(=O)=O)CCC1
    100.2 | 83.5 | -28.4 | 103.2
CC1(C)CC(N2CCN(C3CC(C)(C)NC(C)(C)C3)CC2)CC(C)(C)N1
    109.5 | 85.4 | -25.5 | 103.4

Screening data: PubChem, ICCB-Longwood Screening Facility, Harvard Medical School

Compounds as they come; any-hit rate near 0.85%.
